VDR inh: vitamin D3 receptor (human) inhibition. 0.93% of 400,000 active. P11473. VDR-SRC2-3 peptide fluorescence polarization, 2 h. Potency, µM, for inactives: max response, negative = inhibition, most hits filed as inhibitors; active = well fitted inhibition curve with a large enough effect; inconclusive = small, poorly fitted or top-dose-only effect, or another doubt; inactive = no such curve, though single readings can be large or run the other way; note: series mostly up to about 120 µM
Target sequence (P11473 whole entry, looked up): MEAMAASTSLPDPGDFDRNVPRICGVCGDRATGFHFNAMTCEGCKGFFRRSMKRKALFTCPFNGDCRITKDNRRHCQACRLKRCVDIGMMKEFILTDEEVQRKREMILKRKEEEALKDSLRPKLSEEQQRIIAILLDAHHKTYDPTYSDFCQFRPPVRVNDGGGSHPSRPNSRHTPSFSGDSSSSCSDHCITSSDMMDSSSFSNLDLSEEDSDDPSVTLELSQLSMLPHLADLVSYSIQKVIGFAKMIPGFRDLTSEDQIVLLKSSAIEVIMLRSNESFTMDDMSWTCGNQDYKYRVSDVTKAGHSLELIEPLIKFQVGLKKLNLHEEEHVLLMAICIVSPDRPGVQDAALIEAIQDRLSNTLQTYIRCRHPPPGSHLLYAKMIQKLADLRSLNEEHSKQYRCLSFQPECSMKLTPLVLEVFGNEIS
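VDR–SRC2-3 interaction, FP format. Cmpds 23 nl via pintool, brief spin, 2 h ambient incubation.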
Active calls of the source: *; [ ] = dose if it differs, or a comment. % is set by controls: 0 for no effect and ±100 for the full control effect; potency is the fitted concentration of half-maximal effect. A portion of the library; the hit share may differ from the screen's.

Results for Cc1cc(N2CCN(C(c3ccccc3)c3ccccc3)CC2)n2ncnc2n1 ?
VDR inh: -17%

How did COCn1c(COc2ccccc2)nc2ccccc21 do in these assays?
VDR inh: -18%

Results for COc1cccc(C(C(=O)NC(C)(C)C)N(CCC(C)C)C(=O)CCC(=O)Nc2cc(C)on2)c1OC (stereo not given) ?
VDR inh: 1%

Results for O=C(N/N=C/c1c[nH]c2ccccc12)c1cc(-c2ccccc2)n[nH]1 ?
VDR inh: 2%

Results for C[C@@]12C(=O)Nc3ccc(Br)cc3C(=O)N1[C@H]1c3cc(Cl)ccc3OC[C@@H]1[C@@H]2c1ccccc1 ?
VDR inh: -12%

How did CCCCNc1nc(-c2ccccc2)cc(C(F)(F)F)c1C(N)=O do in these assays?
VDR inh: -10%

What do the screens show for `CCOc1cccc(/C(O)=C2/C(=O)C(=O)N(CCOC)C2c2ccco2)c1` (stereo not given)?
VDR inh: -20%

How did O=C(NCC1CCCO1)c1cccc(NC(=O)c2ccco2)c1 (stereo not given) do in these assays?
VDR inh: 1%

Results for Cc1cccc(NC(=O)c2cccc(NC(=O)c3ccco3)c2)c1 ?
VDR inh: -6%

How did C[C@]12CC[C@H](O)CC1=CCC1C2CC[C@@]2(C)C1CC[C@@H]2NC(=O)[C@@H](N)Cc1cnc[nH]1 (stereo not given in full) do in these assays?
VDR inh: 6%

How did Cc1cc(C)c2nc3sc(C(=O)N4CCOCC4)c(N)c3cc2c1 do in these assays?
VDR inh: -7%

What do the screens show for `Cc1noc(C)c1COc1ccc(C(=O)NCCc2ccccn2)cc1`?
VDR inh: -14%

Results for CNC(=O)CSc1nnc(C2CC2)n1-c1ccccc1 ?
VDR inh: 0%

What do the screens show for `Nn1c(=O)c2ccccc2n2c(SCc3ccccc3)nnc12`?
VDR inh: 4%

How did O=c1cc(CNCCCO)c2ccccc2[nH]1 do in these assays?
VDR inh: 2%

Brought forward from above: six compounds; new compounds follow.
How did C[C@]12CC[C@H](O)CC1=CCC1C2CC[C@@]2(C)C1CC[C@@H]2NC(=O)[C@@H](N)Cc1cnc[nH]1 (stereo not given in full) do in these assays?
VDR inh: 6%

How did Cc1cc(C)c2nc3sc(C(=O)N4CCOCC4)c(N)c3cc2c1 do in these assays?
VDR inh: -7%

What do the screens show for `Cc1noc(C)c1COc1ccc(C(=O)NCCc2ccccn2)cc1`?
VDR inh: -14%

Results for CNC(=O)CSc1nnc(C2CC2)n1-c1ccccc1 ?
VDR inh: 0%

What do the screens show for `Nn1c(=O)c2ccccc2n2c(SCc3ccccc3)nnc12`?
VDR inh: 4%

How did O=c1cc(CNCCCO)c2ccccc2[nH]1 do in these assays?
VDR inh: 2%

What do the screens show for `COC(=O)C1C(c2ccccc2)NC(=O)NC1(O)C(F)(F)Cl` (stereo not given)?
VDR inh: -17%

Results for O=C(Nc1ccccc1)NC1CCN(Cc2ccccc2)CC1 ?
VDR inh: 15%

What do the screens show for `CCCn1c(CN2CCN(C)CC2)nc2ccccc21`?
VDR inh: 9%

What do the screens show for `COc1cccc(NC(=O)c2ccc3c(c2)CCCC3)c1`?
VDR inh: -7%

What do the screens show for `COC(=O)CN(c1cc(C(F)(F)F)ccc1Cl)S(C)(=O)=O`?
VDR inh: -3%

Results for COc1ccc(-c2nnc(NC(=O)C3=COCCO3)o2)cc1 ?
VDR inh: 0%

How did O=P(O)(O)COc1ccccc1P(=O)(c1ccccc1)c1ccccc1 do in these assays?
VDR inh: 20%

How did CCSc1nnc(NC(=O)Cc2cccc(OC)c2)s1 do in these assays?
VDR inh: -4%

What do the screens show for `O=C(N1CCCC1)C12CC3CCC(CC(C3)C1)C2`?
VDR inh: -7%

What do the screens show for `COc1ccc(-n2nnnc2CNC(=O)C(=O)c2c(C)[nH]c3ccccc23)cc1`?
VDR inh: -8%

What do the screens show for `Cc1ccc(-c2csc(N/N=C/C=C/c3ccccc3)n2)cc1`?
VDR inh: -3%

What do the screens show for `CCCn1nnc(NCc2ccc(OCc3cccs3)c(OC)c2)n1`?
VDR inh: -2%

What do the screens show for `O=C(Nc1nc2ccc(F)cc2s1)c1cccs1`?
VDR inh: -1%

What do the screens show for `O=C(Nc1ccc(Cl)cc1F)c1cnc2sc(N3CCOCC3)nn2c1=O`?
VDR inh: 6%

Results for CC1=NN(C(=O)c2ccc(Cn3nc(C)c(Br)c3C)cc2)C(O)(C(F)(F)F)C1 (stereo not given) ?
VDR inh: -7%

The closing four records of the part above are carried over, then new ones follow:
What do the screens show for `CCCn1nnc(NCc2ccc(OCc3cccs3)c(OC)c2)n1`?
VDR inh: -2%

What do the screens show for `O=C(Nc1nc2ccc(F)cc2s1)c1cccs1`?
VDR inh: -1%

What do the screens show for `O=C(Nc1ccc(Cl)cc1F)c1cnc2sc(N3CCOCC3)nn2c1=O`?
VDR inh: 6%

Results for CC1=NN(C(=O)c2ccc(Cn3nc(C)c(Br)c3C)cc2)C(O)(C(F)(F)F)C1 (stereo not given) ?
VDR inh: -7%

What do the screens show for `CC1Cc2cc(S(=O)(=O)CCC(=O)NCc3ccc(Cl)cc3)ccc2N1C(=O)C1CC1` (stereo not given)?
VDR inh: 10%

How did COc1ccc(NC(=O)CCCn2cnc3ccccc3c2=O)c(OC)c1 do in these assays?
VDR inh: -25%

What do the screens show for `COc1ccc(S(=O)(=O)N(CC(=O)Nc2cccnc2)c2ccc(C)cc2)cc1OC`?
VDR inh: -13%

What do the screens show for `Cc1ccnc(NS(=O)(=O)c2ccc(NC(=O)C3CC=CCC3C(=O)O)cc2)n1` (stereo not given)?
VDR inh: 0%

Results for CCC(Oc1ccccc1)C(=O)Nc1ccccc1OC (stereo not given) ?
VDR inh: 4%

What do the screens show for `COc1ccc2oc(=O)c(C(=O)NC(C)c3ccccc3)cc2c1` (stereo not given)?
VDR inh: -1%

Results for Cc1nnc(NC(=O)c2nc(S(=O)(=O)Cc3ccccc3)ncc2Cl)s1 ?
VDR inh: inconclusive

What do the screens show for `COc1ccc(C2=NN(C(=O)COC(=O)c3ccc(NC(=O)CC#N)cc3)C(c3ccco3)C2)cc1` (stereo not given)?
VDR inh: -13%

Results for COc1ccc(-n2c(/C=C(\C)O)nc(=O)c3c(C)cc(C)nc32)cc1 ?
VDR inh: -9%

How did CCNC(=S)NNC(=O)c1ccc2ncccc2c1 do in these assays?
VDR inh: 10%

Results for O=C1CCCN2N=C(SCC(=O)Nc3ccc([N+](=O)[O-])cc3)SC2=N1 ?
VDR inh: inconclusive

What do the screens show for `O=C(CN1CCN(c2ccccc2)CC1)NC(=O)NCc1ccco1`?
VDR inh: -19%

Results for CCCNC(=O)c1oc2ccc3c(c2c1C)C(O)CC(C)(C)O3 (stereo not given) ?
VDR inh: 30%[activator]

Results for O=c1c2c(c(-c3ccccc3)nn1Cc1ccccc1)CCCC2 ?
VDR inh: -17%

Results for CN(CC1COc2ccccc2O1)C(=O)Cn1cc(C(F)(F)F)ccc1=O (stereo not given) ?
VDR inh: 0%

Results for CCOC(=O)NC(=O)CSc1ccc(S(=O)(=O)N(C)C2CCCCC2)cn1 ?
VDR inh: -13%

How did Cc1c(Br)c([N+](=O)[O-])nn1CC(=O)Nc1c(C)n(C)n(-c2ccccc2)c1=O do in these assays?
VDR inh: -6%

How did COc1ccc(-c2noc(CSc3nnc(C)n3-c3ccc(F)cc3)n2)cc1 do in these assays?
VDR inh: -1%

What do the screens show for `Cc1nc2ccccc2nc1N1CCOCC1`?
VDR inh: -8%

What do the screens show for `NC(=O)C1CCN(c2cc(Cl)nc(N)n2)CC1`?
VDR inh: 79µM*

How did COc1ccc(-c2[nH]n(-c3ccc([N+](=O)[O-])cc3)c(=O)c2C=NCc2ccccc2)cc1 do in these assays?
VDR inh: 4%

What do the screens show for `Cc1ccc2oc(-c3ccc(C)c(NC(=O)C(C)(C)Oc4ccc(Cl)cc4)c3)nc2c1`?
VDR inh: -2%

What do the screens show for `Cc1ccccc1CN1CCC(Oc2ccc(C(=O)NCc3ccccn3)cc2)CC1`?
VDR inh: 0%

How did COC(=O)[C@H](C(C)C)N(Cc1ccccc1)S(=O)(=O)CCNC1CCCC1 do in these assays?
VDR inh: -12%

Results for Cc1c(Br)ccc(NC(=O)CCN2C(=O)C3C4CCC(C4)C3C2=O)c1C (stereo not given) ?
VDR inh: 2%

How did CC(=O)Nc1ccc(S(=O)(=O)NC2=NCN(CCOC(=O)c3ccccc3)CN2)cc1 do in these assays?
VDR inh: -4%

What do the screens show for `Cc1ccc(O)c(C2=Nc3ccccc3N=C(c3cccc(F)c3)C2)c1`?
VDR inh: inconclusive

How did COc1cc2nc(CN3CCN(S(=O)(=O)c4ccc(Br)cc4)CC3)[nH]c(=O)c2cc1OC do in these assays?
VDR inh: -5%

How did O=C(NC1CC1)c1ccc(COc2ccc(F)cc2)o1 do in these assays?
VDR inh: 7%

Results for OCCCN=C1CCCc2c1[nH]c1ccc(Cl)cc21 ?
VDR inh: 5%

What do the screens show for `CC(C)Sc1nnc(Cn2c(=O)sc3ccccc32)n1-c1ccccc1`?
VDR inh: -4%

Results for Cc1nn(Cc2c(F)c(F)c(F)c(F)c2F)c(C)c1NC(=O)c1ccc(COc2ccc(Cl)cc2Cl)o1 ?
VDR inh: -16%

How did CC(OC(=O)c1ccccc1C(=O)N(C)Cc1ccccc1)C(=O)NC1(C#N)CCCCC1 (stereo not given) do in these assays?
VDR inh: -17%

How did C/C(=N\NC(N)=O)C1CC(Cc2ccccc2)C(=O)O1 (stereo not given) do in these assays?
VDR inh: 16%

How did Nc1ncnc(Nc2cccc(C(F)(F)F)c2)n1 do in these assays?
VDR inh: 4%

Results for COc1cc(C(=O)NCc2nnc(SCC(=O)N3CCCc4ccccc43)o2)cc(OC)c1OC ?
VDR inh: -5%

How did COCCNC(=O)C(c1cccs1)N(Cc1ccccc1)C(=O)Cn1nnc2ccccc21 (stereo not given) do in these assays?
VDR inh: 14%

What do the screens show for `N#CC1=C(N)Oc2nc(-c3ccccc3)[nH]c2C1c1cccnc1` (stereo not given)?
VDR inh: -21%

Results for Cc1ccc(Cl)cc1N1CCN(C(=O)c2cccn3c(=O)c4cc(Cl)ccc4nc23)CC1 ?
VDR inh: 1%

How did CCc1ccccc1N(CC)C(=O)Cn1nc(Cc2ccncc2)c2ccccc2c1=O do in these assays?
VDR inh: -18%

Results for COCCNc1oc(/C=C/c2ccccc2)nc1C#N ?
VDR inh: 6%

What do the screens show for `Cc1ccc(C(=O)CN2CCC(NC(=O)C3CCCCC3)CC2)cc1`?
VDR inh: -6%

What do the screens show for `CCN(C(=O)CCC(=O)N(CC)c1ccccc1)c1ccccc1`?
VDR inh: -2%

Results for COc1ccc(C2CC(C(F)(F)F)n3nc(CO)c(Cl)c3N2)cc1OC (stereo not given) ?
VDR inh: -6%

What do the screens show for `CC(C)(C)OC(=O)NCCC(=O)N/N=C/c1ccc2ncccc2c1`?
VDR inh: 14%

How did O=C(Cc1ccc(Cl)cc1)Nc1cc(S(=O)(=O)N2CCOCC2)ccc1N1CCCC1 do in these assays?
VDR inh: 3%

Results for CCOc1ccc(S(=O)(=O)Nc2cccc(OC)c2)cc1 ?
VDR inh: 3%

What do the screens show for `CCOC(=O)N1CCC(=NNC(=O)COc2ccc(C#N)cc2)CC1`?
VDR inh: -12%

What do the screens show for `CCOC(=O)C1=CN(Cc2cccc(F)c2)S(=O)(=O)NC1c1cccc(OC)c1` (stereo not given)?
VDR inh: 5%

Results for COc1ccccc1N1CC(C(=O)Nc2nnc(SCC(=O)NC(C)C)s2)CC1=O (stereo not given) ?
VDR inh: 0%

What do the screens show for `COC(=O)[C@@H](c1ccccc1)N(C)S(=O)(=O)c1cccc(S(=O)(=O)N(C)[C@@H](C(=O)OC)c2ccccc2)c1`?
VDR inh: -18%

What do the screens show for `CN(C)S(=O)(=O)N1CCN(S(=O)(=O)N(C)C)CC1`?
VDR inh: 0%

Results for O=C(Nc1ccccc1N1CCOCC1)C1CCCO1 (stereo not given) ?
VDR inh: 0%

What do the screens show for `COc1ccc(OC)c(C(O)c2coc3ccc(O)c(CN4CCOCC4)c23)c1` (stereo not given)?
VDR inh: 23%

Results for CC(C)NCC(=O)Nc1c2c(nc3ccccc13)CCC2 ?
VDR inh: 6%

What do the screens show for `C=CCC[C@@H](Cc1ccc(F)cc1)C(=O)OC[C@@H](Cc1c[nH]c2ccccc12)NC(=O)[C@H](CC=C)CC(=O)N(CCO)Cc1ccccc1`?
VDR inh: -3%

Results for COCCN(C(=O)COC(=O)/C=C/c1cccs1)c1c(N)n(Cc2ccccc2)c(=O)[nH]c1=O ?
VDR inh: 6%

What do the screens show for `Cc1ccccc1Nc1nc(-c2cccc(Cl)c2)c2c(n1)-c1ccccc1OC2`?
VDR inh: 12%

Results for Cc1ccc(S(=O)(=O)CC(=O)N2CCN(c3cccc(C(F)(F)F)c3)CC2)cc1 ?
VDR inh: 9%

What do the screens show for `Cc1ccc(NC(=O)c2cccc(F)c2)cc1S(=O)(=O)N1CCCCCC1`?
VDR inh: 2%

How did Cc1cc(C(=O)OCC(=O)NCc2ccco2)c(C)n1-c1ccccc1 do in these assays?
VDR inh: 11%

How did Cc1nn(CC(=O)NNC(=O)c2cccc(Br)c2)c(C)c1[N+](=O)[O-] do in these assays?
VDR inh: 2%

How did Cc1ccc2nc3c(cc(S(=O)(=O)c4ccccc4)c(=N)n3Cc3ccco3)c(=O)n2c1 do in these assays?
VDR inh: 2%
